Beta cell apopt – beta cell apoptosis inhibition; 300,000 tested, 0.8% active; protection from apoptosis, % (test concentration not listed); INS-1E cytokine-induced death, ATP luminescence, 48 h; percent of positive-control rescue, neutral wells zero;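 active = all replicates at 75% or more, or half of them and the mean; inconclusive = half reach 75% but not the mean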;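 note: 0% = cytokine-treated negative control wells and 100% = positive control rescue; higher means more ATP so stronger rescue from cytokine killing; wells of about 40 µL received 100 nL stock; the first replicate is given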
T cruzi inh – blocks replication of Trypanosoma cruzi | inhibition, % (concentration not given with the values) | T. cruzi beta-gal in NIH3T3, luminescence, 90 h | 300,000 tested, 1.4% active;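 active = mean inhibition across valid replicates above about 55%, limit read from the data; inconclusive = mean below that limit but half or more replicates reach it; inactive = mean below it, under half of replicates reach it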;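 note: signal also drops with host cell toxicity which is not excluded here; 0% = plate median of DMSO wells and 100% = zero luminescence signal; higher percent means less beta-gal luminescence so fewer parasites; stock transfer was 50 nL into about 50 µL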
Vif A3G – inhibitors of Vif binding to APOBEC3G peptide, primary screen, biochemical, TR-FRET, GST-Vif 1-94, biotin-A3G peptide, dose response retest (AID 1117319) | inhibition, %, or IC50 in µM where a hit was titrated | TR-FRET GST-Vif / biotin-A3G peptide binding; higher % means a stronger effect; test concentration not given here; strong numbers were not always called active | 260,000 tested, 0.57% active;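 active = above the screen mean plus three standard deviations and confirmed in dose response; inconclusive = results disagree or hit not tested in dose response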;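 note: Vif residues 1-94 fused to GST binding biotinylated APOBEC3G peptide 110-148; 0% = full assay without inhibitor and 100% = GST in place of GST-Vif; retest series ran down from 100 µM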
Bfl-1 A1 inh – inhibitors of the anti-apoptotic protein A1, read as caspase activation. caspase activation, % (test concentration not listed). 330,000 tested, 0.066% active. MEF A1-2A-BIM cells, Caspase-Glo 3/7 luminescence, 3 h; percent of clofoctol response, vehicle zero;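 active = over half of replicate activation scores above 10%, or exactly half above 10 with the replicate mean above 10; inconclusive = replicate mean below 10 yet half the replicates above 10; inactive = over half of replicates below 10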;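 note: wells of about 30 µL received 50 nL stock; many hits fall short of the cut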
MLL AF4-AF9 inh – MLL-AF4/AF9 protein interaction inhibition | inhibition, % at 10 µM | AlphaScreen, biotin-AF4 peptide binding to FLAG-AF9 | 350,000 tested, 0.47% active | P42568 | AID 651704;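 active = every replicate reaching a set inhibition limit, whatever the replicate mean, cut at about 25% in these data; inconclusive = mean inhibition reaches that limit but some replicates miss it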;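 note: 0% = plate neutral control median and 100% = total signal loss; the record names both 10 and 1 µM as test concentration; the first replicate is given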
Target sequence (P42568 whole entry, looked up): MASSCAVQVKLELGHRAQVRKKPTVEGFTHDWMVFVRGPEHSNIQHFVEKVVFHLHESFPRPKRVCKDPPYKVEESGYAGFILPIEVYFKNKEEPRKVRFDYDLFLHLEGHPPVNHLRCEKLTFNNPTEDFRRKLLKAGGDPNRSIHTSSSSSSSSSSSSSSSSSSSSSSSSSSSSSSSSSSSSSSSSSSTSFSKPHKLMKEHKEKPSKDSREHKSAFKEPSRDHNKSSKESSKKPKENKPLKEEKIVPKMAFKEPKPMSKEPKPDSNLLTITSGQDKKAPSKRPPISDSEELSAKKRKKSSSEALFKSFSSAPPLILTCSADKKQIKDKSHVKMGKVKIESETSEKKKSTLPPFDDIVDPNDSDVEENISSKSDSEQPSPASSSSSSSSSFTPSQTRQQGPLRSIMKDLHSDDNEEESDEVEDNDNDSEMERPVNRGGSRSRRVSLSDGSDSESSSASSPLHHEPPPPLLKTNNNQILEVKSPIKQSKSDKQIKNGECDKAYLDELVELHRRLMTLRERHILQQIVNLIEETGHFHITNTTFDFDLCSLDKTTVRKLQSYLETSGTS
Calb FLC – C. albicans growth modulation with fluconazole; C. albicans CaCi-2 (fluconazole-resistant clinical isolate) + fluconazole, Alamar Blue growth, 48 h; growth inhibition, % (concentration not given with the values); 300,000 tested, 0.57% active;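 active = most replicates above 75%; inconclusive = exactly half above 75%; inactive = most below 75%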;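 note: all wells also contain fluconazole at 8 µg/ml as a sub-toxic cotreatment; 0% = median of DMSO wells and 100% = median of geldanamycin control wells; wells of about 8 µL received 7.5 nL stock; the first replicate is given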
Ecoli rRNA inh – inhibits bacterial ribosomal RNA function over humanized ribosomes | AID 720706 | E. coli WT GFP vs humanized-ribosome RFP mutants, fluorescence, 24 h; active compounds read low; DMSO median 0, no signal -100 | 350,000 tested, 1.6% active | GFP signal change (wild-type ribosome), % (concentration not given with the values);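 active = significant combined selectivity score with lowered wild-type GFP, culture density cut under 30%, mutant RFP and density less affected; inactive = any of these conditions unmet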; note: one replicate is shown; some compounds called inactive have numbers as strong as hits
RanGTP-Imp inh – inhibitors of RanGTP-importin-beta interaction, primary screen, biochemical, FRET, CFP-Ran, YFP-importin-beta, homogeneous. cell-free CFP-Ran/YFP-importin-beta FRET ratio. inhibition, % (no concentration beside the values). 300,000 tested, 1.1% active. AID 2216;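 active = most replicates above 15%; inconclusive = exactly half above 15%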;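 note: 0% = DMSO wells and 100% = Ran loaded with GDP instead of GTP; wells of about 40 µL received 100 nL stock; the first replicate is given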
Ecoli rRNA inh OD600 – second read-out of Ecoli rRNA inh, no call of its own (marks repeat the call); OD600 change, %; measured here: OD600 growth;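 optical density of the mix in the first replicate; 0 = DMSO median and -100 = no signal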
Ecoli rRNA inh RFP – second read-out of Ecoli rRNA inh, no call of its own (marks repeat the call); RFP signal change, %; measured here: RFP humanized mutant strains;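 first replicate; 0 = DMSO median and -100 = no signal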
* = called active by the depositor; ? = inconclusive; · = no result given.

Molecule | Beta cell apopt | T cruzi inh | Vif A3G | Bfl-1 A1 inh | MLL AF4-AF9 inh | Calb FLC | Ecoli rRNA inh | Ecoli rRNA inh OD600 | Ecoli rRNA inh RFP | RanGTP-Imp inh
COc1ccc(-c2c[n+]3c(n2-c2ccccc2)SCC3)cc1OC | 6 | 7 | -9% | 0.3 | -1.4 | 6 | 11 | 9 | -0.1 | 0.7
Cc1cc(C)nc(SCC(=O)N(C)C)n1 | -3 | -4 | -2% | -0.9 | -0.8 | 10 | 12 | 4 | 1.8 | -3.4
COc1cccc(O)c1CN1CCC(n2nccc2NC(=O)c2ccc3c(c2)OCO3)CC1 | 7 | 9 | · | -0.9 | 4.1 | 3 | -6 | -11 | 0.8 | -0.5
O=C1/C(=C/c2cccnc2)CCC/C1=C\c1cccnc1 | 100* | · | -3% | 0.0 | -3.5 | · | -21 | -6 | -9.4 | ·
COc1ccccc1N1CCN(C(=O)C2CCCN(S(=O)(=O)c3ccc(C)cc3)C2)CC1 (centres undefined) | 18 | · | 4% | 1.5 | 8.4 | · | -7 | -13 | 3.9 | ·
COc1ccc(S(=O)(=O)Nc2cc(Cl)ccc2-n2cncn2)cc1 | 8 | · | 5% | -0.6 | -7.6 | · | -5 | -12 | -2.5 | ·
CN1CCN(C(=O)c2cc(COc3ccc(F)cc3Cl)on2)CC1c1ccccc1 (centres undefined) | -10 | 23 | 20% | -0.3 | -8.8 | 13 | -33 | -38 | 4.5 | 2.9
O=C(O)c1ccccc1C(=O)N1CCN(S(=O)(=O)c2cccc(C(F)(F)F)c2)CC1 | 2 | · | 4% | 0.4 | 1.7 | · | 17 | 12 | 3.3 | ·

(next part)
Molecule | Beta cell apopt | T cruzi inh | Vif A3G | Bfl-1 A1 inh | MLL AF4-AF9 inh | Calb FLC | Ecoli rRNA inh | Ecoli rRNA inh OD600 | Ecoli rRNA inh RFP | RanGTP-Imp inh
COC(=O)CN1C(=O)N/C(=C/c2cc(Cl)c(OC)c(OC)c2)C1=O | -5 | -1 | -2% | 1.3 | -2.2 | -8 | 8 | 3 | 1.4 | -2.7
Cc1ccc(C)c(-n2cc(CNC(C)Cn3cncn3)c(-c3ccccc3)n2)c1 (centres undefined) | -9 | 11 | -12% | 0.3 | -2.0 | ? | 8 | 0 | 1.4 | -0.4
COc1ccc(-c2noc(CCC(=O)N3CCC(C)CC3)n2)cc1 | -3 | 18 | 1% | 0.3 | · | ? | · | · | · | 0.2
O=C(NCc1ccccn1)c1cc(-c2ccccc2)on1 | · | 2 | -1% | 0.0 | · | 7 | · | · | · | -4.4
Cc1ncc([N+](=O)[O-])n1CCOC(=O)c1ccccc1 | 2 | 5 | 11% | -0.3 | · | -3 | · | · | · | 1.1
O=C(Nc1nc(-c2ccccn2)cs1)C1COc2ccccc2O1 (centres undefined) | -1 | · | -9% | -0.1 | -1.2 | · | -53 | -74 | -16 | ·
Clc1ccc2oc(-c3ccccn3)nc2c1 | 4 | 10 | ? | -11 | · | 1 | · | · | · | 0.8
O=C(NC(=S)N1CCN(C2CCCCC2)CC1)c1ccccc1 | -6 | -3 | ? | 1.0 | -2.1 | -4 | 24 | 10 | 4.0 | -1.6

Following part
Molecule | Beta cell apopt | T cruzi inh | Vif A3G | Bfl-1 A1 inh | MLL AF4-AF9 inh | Calb FLC | Ecoli rRNA inh | Ecoli rRNA inh OD600 | Ecoli rRNA inh RFP | RanGTP-Imp inh
O=C(CSc1nc2ccccc2c(=O)n1CCCN1CCOCC1)Nc1cccc(S(=O)(=O)N2CCCCCC2)c1 | 5 | 30 | 5% | 0.2 | · | -5 | · | · | · | 0.4
CCN(CC)S(=O)(=O)c1ccc(C(=O)OCn2c(SC)nnc(C)c2=O)cc1 | -3 | 0 | -10% | 0.5 | · | 3 | · | · | · | -4.1
COc1ccc(NC(=O)c2ccc([N+](=O)[O-])o2)cc1 | · | 24 | · | -6.5 | 3.9 | 103* | -57 | -79 | -15 | -0.4
Cc1cc(C)cc(NC(=O)C(c2ccccc2)N2CCCC2)c1 (centres undefined) | -6 | 0 | 3% | 1.0 | · | -27 | · | · | · | 2.2
CN(C)c1ccc(/C=N/n2c(-c3ccccc3Br)n[nH]c2=S)cc1 | -13 | -9 | · | -0.7 | -18 | -34 | 8 | 5 | 6.7 | -1.1
Cc1ccc(OCC(=O)N2CCN(S(=O)(=O)c3ccc(Cl)cc3)CC2)c([N+](=O)[O-])n1 | -7 | 29 | · | -0.3 | · | 3 | · | · | · | -6.5
COCCOC(=O)c1c(C)oc2cc(Br)c(OCC(N)=O)cc12 | 0 | 2 | 12% | -0.3 | -3.8 | 24 | 10 | 5 | 1.9 | ·
CC(C)c1ccc(-c2nnn(Cc3nc4ccccc4s3)n2)cc1 | -8 | 17 | 2% | -0.1 | · | 5 | · | · | · | -1.9

Carrying on.
Molecule | Beta cell apopt | T cruzi inh | Vif A3G | Bfl-1 A1 inh | MLL AF4-AF9 inh | Calb FLC | Ecoli rRNA inh | Ecoli rRNA inh OD600 | Ecoli rRNA inh RFP | RanGTP-Imp inh
Cc1nc2ccccc2c2c1C(=O)N(C(C)C)C2=O | 1 | -10 | 3% | 0.1 | 13 | -3 | -6 | -7 | -6.3 | 3.0
O=c1[nH]c(-c2ccc(F)cc2)nc2c1sc(=S)n2-c1ccccc1 | 38 | -12 | ? | 0.1 | -0.3 | -21 | 2 | -5 | -4.2 | -0.4
O=C(Nc1cccnc1)c1ccc(Oc2ccccc2)cc1 | -9 | -6 | -1% | -15 | · | -12 | · | · | · | -2.7
O=S(=O)(c1ccccc1)N1CCN(c2ccnc3cc(Cl)ccc23)CC1 | 33 | 16 | 4% | -0.1 | 0.0 | 22 | -38 | -36 | -3.8 | 9.9
CC(=O)c1c(COC(=O)c2ccccc2)nc2ccccc2[n+]1[O-] | · | -20 | 4% | 0.1 | · | 11 | · | · | · | 5.4
Clc1ccc(CNC23CN4CN(CN(C4)C2)C3)c(Cl)c1 | -9 | 11 | -3% | -0.6 | 10 | -11 | 9 | 6 | -2.1 | 0.4
O=S(=O)(NC1=NCCCCC1)c1ccc(Cl)cc1 | 2 | -6 | -11% | 0.6 | -2.7 | 2 | 21 | 12 | 3.2 | -0.8

Structural class, the entries above containing an aryl methoxy group (7)
Molecule | Beta cell apopt | T cruzi inh | Vif A3G | Bfl-1 A1 inh | MLL AF4-AF9 inh | Calb FLC | Ecoli rRNA inh | Ecoli rRNA inh OD600 | Ecoli rRNA inh RFP | RanGTP-Imp inh
COc1ccc(-c2c[n+]3c(n2-c2ccccc2)SCC3)cc1OC | 6 | 7 | -9% | 0.3 | -1.4 | 6 | 11 | 9 | -0.1 | 0.7
COc1cccc(O)c1CN1CCC(n2nccc2NC(=O)c2ccc3c(c2)OCO3)CC1 | 7 | 9 | · | -0.9 | 4.1 | 3 | -6 | -11 | 0.8 | -0.5
COc1ccccc1N1CCN(C(=O)C2CCCN(S(=O)(=O)c3ccc(C)cc3)C2)CC1 (centres undefined) | 18 | · | 4% | 1.5 | 8.4 | · | -7 | -13 | 3.9 | ·
COc1ccc(S(=O)(=O)Nc2cc(Cl)ccc2-n2cncn2)cc1 | 8 | · | 5% | -0.6 | -7.6 | · | -5 | -12 | -2.5 | ·
COC(=O)CN1C(=O)N/C(=C/c2cc(Cl)c(OC)c(OC)c2)C1=O | -5 | -1 | -2% | 1.3 | -2.2 | -8 | 8 | 3 | 1.4 | -2.7
COc1ccc(-c2noc(CCC(=O)N3CCC(C)CC3)n2)cc1 | -3 | 18 | 1% | 0.3 | · | ? | · | · | · | 0.2
COc1ccc(NC(=O)c2ccc([N+](=O)[O-])o2)cc1 | · | 24 | · | -6.5 | 3.9 | 103* | -57 | -79 | -15 | -0.4

This is a subset (hit frequency here may not be typical).
